T cruzi repl: blocks replication of Trypanosoma cruzi. AID 1885. inhibition, % (test concentration not listed). T. cruzi beta-gal in NIH3T3, luminescence, 90 h. 300,000 compounds, 1.4% hits;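 active means mean inhibition across valid replicates above about 55%, limit read from the data; inconclusive means mean below that limit but half or more replicates reach it; inactive means mean below it, under half of replicates reach it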;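 further: signal also drops with host cell toxicity which is not excluded here; 0% = plate median of DMSO wells and 100% = zero luminescence signal; higher percent means less beta-gal luminescence so fewer parasites; stock transfer was 50 nL into about 50 µL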
Beta cell apopt: beta cell apoptosis inhibition. protection from apoptosis, % (test concentration not listed). 300,000 compounds, 0.8% hits. AID 435005. INS-1E cytokine-induced death, ATP luminescence, 48 h; percent of positive-control rescue, neutral wells zero;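 active means all replicates at 75% or more, or half of them and the mean; inconclusive means half reach 75% but not the mean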;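 further: 0% = cytokine-treated negative control wells and 100% = positive control rescue; higher means more ATP so stronger rescue from cytokine killing; wells of about 40 µL received 100 nL stock; the first replicate is given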
B2AR ag: human beta-2 adrenergic receptor agonism by FAP. Am2.2-beta2AR cells, FAP receptor internalization, flow cytometry; reference of the scale not given here. response, % (no concentration beside the values). 340,000 compounds, 0.43% hits. P07550;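 active means response above a set limit, near 3 SD of response in nonfluorescent compounds, cut at about 42% in these data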;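 further: stock transfer was 100 nL into about 11 µL; a reference agonist was the positive control; negative values mostly stem from fluorescent compounds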
Target sequence (P07550 whole entry, looked up): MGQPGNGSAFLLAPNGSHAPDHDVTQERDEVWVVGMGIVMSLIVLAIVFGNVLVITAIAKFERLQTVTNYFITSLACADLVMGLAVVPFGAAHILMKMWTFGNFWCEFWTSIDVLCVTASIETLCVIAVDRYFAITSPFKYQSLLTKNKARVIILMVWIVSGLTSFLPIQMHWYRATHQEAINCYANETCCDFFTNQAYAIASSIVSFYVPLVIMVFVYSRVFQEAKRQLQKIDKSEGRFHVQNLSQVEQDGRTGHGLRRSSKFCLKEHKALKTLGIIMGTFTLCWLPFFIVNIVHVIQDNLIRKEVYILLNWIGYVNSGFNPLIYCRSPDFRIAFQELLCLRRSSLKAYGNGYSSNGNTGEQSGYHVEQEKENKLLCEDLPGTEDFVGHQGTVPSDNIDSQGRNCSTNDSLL
ALR H2O2 inh: blocks human ALR sulfhydryl oxidase activity. purified ALR, DTT oxidation, H2O2 HRP-luminol luminescence. 290,000 compounds, 3.8% hits. inhibition, % (no concentration beside the values);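 active means mean and each replicate at 75% or more; inconclusive means only one of the two met; inactive means neither met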;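 further: stock transfer was 7.5 nL into about 7.5 µL; 0% = neutral wells and 100% = wells with inactivated enzyme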
Target sequence (P55789 whole entry, looked up): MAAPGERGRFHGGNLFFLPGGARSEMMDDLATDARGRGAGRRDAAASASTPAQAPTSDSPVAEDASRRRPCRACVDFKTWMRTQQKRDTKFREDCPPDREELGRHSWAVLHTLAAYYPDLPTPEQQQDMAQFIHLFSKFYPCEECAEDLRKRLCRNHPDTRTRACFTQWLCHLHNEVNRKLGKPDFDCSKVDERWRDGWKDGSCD
Bfl-1 A1 inh: inhibitors of the anti-apoptotic protein A1, read as caspase activation | MEF A1-2A-BIM cells, Caspase-Glo 3/7 luminescence, 3 h; percent of clofoctol response, vehicle zero | caspase activation, % (concentration not given with the values) | 330,000 compounds, 0.066% hits | AID 2462;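 active means over half of replicate activation scores above 10%, or exactly half above 10 with the replicate mean above 10; inconclusive means replicate mean below 10 yet half the replicates above 10; inactive means over half of replicates below 10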;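 further: wells of about 30 µL received 50 nL stock; many hits fall short of the cut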
LANA-H2B inh: blocks KSHV LANA binding to histone H2A/H2B; inhibition, % (no concentration beside the values); AID 2629; 320,000 compounds, 0.6% hits; cell-free LANA-H2A/H2B peptide, fluorescence polarization; Q9QR71; in the data active means inhibition mostly above about 10%, no sharp cut-off; inactive means mostly below about 6.7%;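 further: stock transfer was 7.5 nL into about 10 µL; 0% = median of vehicle wells and 100% = median of positive control wells; one replicate is shown; the record names a cut of 25% in any replicate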
Ecoli rRNA inh: inhibitors of bacterial rRNA selective over humanized ribosomes; E. coli WT GFP vs humanized-ribosome RFP mutants, fluorescence, 24 h; stronger effect = lower value; DMSO median 0, no signal -100; AID 720706; GFP signal change (wild-type ribosome), % (test concentration not listed); 350,000 compounds, 1.6% hits;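 active means significant combined selectivity score with lowered wild-type GFP, culture density cut under 30%, mutant RFP and density less affected; inactive means any of these conditions unmet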; further: one replicate is shown; some compounds called inactive have numbers as strong as hits
Calb FLC: C. albicans growth modulation with fluconazole; growth inhibition, % (test concentration not listed); 300,000 compounds, 0.57% hits; C. albicans CaCi-2 (fluconazole-resistant clinical isolate) + fluconazole, Alamar Blue growth, 48 h; AID 1979;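 active means most replicates above 75%; inconclusive means exactly half above 75%; inactive means most below 75%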;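 further: all wells also contain fluconazole at 8 µg/ml as a sub-toxic cotreatment; 0% = median of DMSO wells and 100% = median of geldanamycin control wells; wells of about 8 µL received 7.5 nL stock; the first replicate is given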
Ecoli rRNA inh OD600: second read-out of Ecoli rRNA inh, no call of its own (marks repeat the call); OD600 change, %; measured here: OD600 growth;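 optical density of the mix in the first replicate; 0 = DMSO median and -100 = no signal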
Ecoli rRNA inh RFP: second read-out of Ecoli rRNA inh, no call of its own (marks repeat the call); RFP signal change, %; measured here: RFP humanized mutant strains;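 first replicate; 0 = DMSO median and -100 = no signal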
* hit, by the source's call; ? = inconclusive; . = not tested or not shown. Not all compounds are listed, so the mix of outcomes need not match the whole.

SMILES	T cruzi repl	Beta cell apopt	B2AR ag	ALR H2O2 inh	Bfl-1 A1 inh	LANA-H2B inh	Ecoli rRNA inh	Ecoli rRNA inh OD600	Ecoli rRNA inh RFP	Calb FLC
O=C(Nc1cccc(C(=O)O)c1)/C(=C\c1ccco1)NC(=O)c1ccccc1	-23	0	1	5	0.0	3.8	13	9	1.5	-2
CCN1C(Nc2ccccc2)=NC[C@@H]1C	3	-8	0	1	0.3	11	1	9	14	-8
CCNC(=O)c1cc(S(=O)(=O)N2CCSCC2)ccc1OC	-1	-5	-12	5	0.3	1.1	13	4	0.0	2
COc1ccc(NC(=O)C2CC(=O)N/C(=N/N=C/c3ccccc3)S2)cc1 (configuration not stated)	-8	-8	0	0	0.7	-0.1	12	-5	-1.0	-3
Cc1c(NC(=O)CN2C(=O)c3ccccc3S2(=O)=O)c(=O)n(-c2ccccc2)n1C	.	-3	-6	-3	0.4	-4.3	.	.	.	-5
Cn1c(N)c(C(=O)COC(=O)C23CC4CC(CC(C4)C2)C3)c(=O)n(C)c1=O	3	4	-6	1	-0.4	-0.9	.	.	.	-3
Cc1ccc(NC(=O)C2CCN(S(=O)(=O)c3ccc4c(c3)NC(=O)CO4)CC2)cc1C	3	1	11	-4	0.3	8.4	-2	-16	4.2	-12
CCC(=O)c1ccc(OCC(=O)NCC2(N3CCCCC3)CCCCC2)cc1	5	.	-19	0	0.5	-5.9	7	-10	7.8	-20
C[C@H](C(=O)C=[N+]=[N-])N1C(=O)c2ccccc2C1=O	-10	1	.	3	0.4	-1.1	.	.	.	9
CCOC(=O)c1c(NC(=S)NC(=O)c2ccco2)sc2c1CCCC2	-2	-4	4	-8	0.1	-2.6	.	.	.	13
COC(=O)CN1C(=O)COc2ccc(S(=O)(=O)NCc3ccccc3)cc21	-12	-7	2	-2	1.1	3.3	1	3	1.4	-2
CC(=O)N1CCN(CC(=O)Nc2cccc(S(=O)(=O)N3CCCCCC3)c2)CC1	3	0	0	-1	0.1	0.7	3	4	-1.7	-2
O=C(N/C(=C\c1ccco1)C(=O)N1CCOCC1)c1ccccc1Cl	1	-3	8	.	0.0	7.5	8	14	1.1	0
Clc1ccccc1CN(Cc1ccccc1)C(c1cccs1)c1nnnn1C1CCCC1 (configuration not stated)	35	9	7	-2	1.2	1.5	.	.	.	.
COc1ccc(NC(=O)CSc2nc(C(C)C)nc3c2c(=O)n(C)c(=O)n3C)c(OC)c1	-4	-5	-2	-3	0.5	7.5	5	13	-0.8	3
COc1ccc(C(=O)NCC2CCCCC2)cc1S(=O)(=O)N1CCOCC1	.	2	3	3	-0.8	2.3	0	9	0.1	.
CC(=O)C1=C(O)C(=O)N(c2ccc(O)cc2)C1c1ccccc1Cl (configuration not stated)	-11	-7	-1	45	-0.5	5.1	3	3	0.5	-9
Cc1ccc2c(=O)c(CN3CCCCCC3)c(C)[nH]c2c1C	16	-10	-5	-17	?	9.6	19	23	11	3
COc1ccc(CCCc2nnc(SCC(=O)Nc3nccs3)n2C)cc1C	-1	-1	-6	.	1.0	2.3	.	.	.	2
CCN(CC)c1cc(Oc2ccccc2)ncn1	-7	9	8	-11	-0.1	2.8	.	.	.	?
CCOC(=O)c1ccc(NC(=O)Cn2cnc3cc(C)c(C)cc32)cc1	16	105*	9	-6	0.0	-5.4	-16	-25	5.1	5
O=c1[nH]c2ccc(NC(=S)Nc3ccccc3Cl)cc2[nH]1	-13	-3	6	?	-0.4	4.7	.	.	.	-4
COc1ccc(CCNC(=O)c2c(C)nn(CC(C)C)c2Cl)cc1OC	1	-7	3	-13	0.9	4.5	5	9	0.8	0
O=C(CCc1ccccc1)NC(=S)NCc1ccco1	9	-11	-5	.	1.3	0.6	-18	-13	-0.9	-27
Cc1cc(C(=O)CCC(=O)Nc2ncccc2O)c(C)s1	1	-3	12	-14	?	1.1	-3	-3	-1.0	-12
O=[N+]([O-])c1ccccc1S(=O)(=O)N1CCN(C2CCCC2)CC1	-5	-5	-4	-10	-0.2	-8.0	-1	-3	-0.6	-37
C=CCc1cccc2cc(C(=O)NNC(=O)c3ccncc3)c(=O)oc12	0	.	-1	-8	0.1	7.5	-13	-6	-3.2	?
COc1ccc(NC(=O)c2sc3ncn(CC(=O)N4CCN(c5ccccn5)CC4)c(=O)c3c2C)c(OC)c1	-27	.	3	-4	0.4	-6.4	15	16	-3.3	-8
CCCCCN(C(=O)CCC(=O)OCC(=O)N1CCCCC1)c1c(N)n(CCCC)c(=O)[nH]c1=O	-8	-13	-5	1	0.8	-1.5	0	4	-1.3	0
CCCN1C(=O)/C(=C/c2cc(C)n(C)c2C)SC1=Nc1ccc(OCC)cc1	18	1	-1	1	-0.3	-0.8	.	.	.	-3
C=CCn1c(SCC(=O)Nc2ccc3c(c2)CCC3)nnc1-c1cccs1	12	5	1	-2	0.0	1.9	.	.	.	-1
Cc1cccc(-n2c(-c3ccco3)n[nH]c2=S)c1	-10	-8	4	86*	0.5	-1.8	.	.	.	3
CC(C)Cc1ccc(C(C)C(=O)Nc2ccc(O)cc2)cc1 (configuration not stated)	14	-1	3	71	1.1	-1.0	-27	-49	-1.9	12
CC(C)Nc1nc(NC(C)C)nc(N(C)N)n1	1	-4	0	1	0.1	0.9	.	.	.	0
Cc1ccc2c(c1)N(C(=O)CCC(=O)N1CCc3ccccc3C1)CCO2	16	0	-6	6	0.1	-1.4	.	.	.	0
COc1cccc(C(C(=O)NC2CCCCC2)N(CC2CCCO2)C(=O)CNC(=O)c2ccco2)c1 (configuration not stated)	2	-9	-29	-2	-0.6	-0.4	.	.	.	36
COc1ccc(/C=N/NC(=O)C(N)=O)c(OC)c1OC	-8	-5	8	5	0.4	3.0	.	.	.	0
Cc1c(C(N)=O)sc2ncn(CCOc3ccccc3)c(=O)c12	4	-8	0	7	-0.9	-3.0	18	14	2.1	-1
Nc1ccc(Oc2ccccc2F)nc1	2	-6	-6	-5	0.5	-3.0	83	-4	15	12
C[C@H](NC(=O)C1CCN(C(=O)[C@H](Cc2ccccc2)NC(=O)OC(C)(C)C)CC1)C(=O)O	-6	-1	-8	-13	0.2	2.2	11	8	-1.3	-8
Cc1cc(=O)oc2cc(OC(C)C(=O)NCCCn3ccnc3)ccc12 (configuration not stated)	-8	-1	1	-2	-0.1	-0.2	3	11	-3.2	0
CN(Cc1ccccc1)C(=O)COC(=O)c1ccc(Br)o1	.	-6	-1	2	0.2	5.6	-1	4	0.5	.
Cc1cc2cc(CNC(=S)Nc3ccc(OC(F)(F)F)cc3)ccc2[nH]1	-17	.	4	1	0.3	-0.9	-18	-18	7.2	-1
CCOC(=O)N1CCC(N2Cc3cccc(C(=O)Nc4cc(F)ccc4F)c3C2=O)CC1	26	5	9	-25	.	-8.1	3	13	-0.1	0
COc1ccc(CN(C)C(=O)c2cc(S(=O)(=O)N3CCOCC3)ccc2N2CCCC2)cc1	14	1	-5	-5	0.2	-2.0	-11	-8	7.2	7
Cn1ncc([N+](=O)[O-])c1C(=O)Nc1ccccc1C(=O)O	-16	2	0	-1	0.4	3.8	25	23	6.4	-9
Cc1cc(C(C)(C)C)n2nc(C)c(-c3ccccc3)c2n1	-1	.	3	.	0.2	3.1	15	14	5.5	-8
COc1ccc(C)cc1S(=O)(=O)N1CCN(S(=O)(=O)c2cc(C(=O)O)ccc2C)CC1	-10	-3	-10	-1	-0.2	6.9	7	-1	0.1	-2
Cc1nc2cc(-c3ccccc3)nn2c(C)c1CCC(=O)NCc1ccco1	-3	-3	-7	.	-0.8	1.0	-6	1	7.0	-6
O=c1c(C(c2ccc(F)cc2)c2c(O)nc3n(c2=O)CCS3)c(O)nc2n1CCS2	-1	-5	4	.	-0.3	0.5	15	11	-2.5	4
Cc1ccc2nc(CNC(=O)C3CCC(=O)N(Cc4ccccc4F)C3)cn2c1 (configuration not stated)	-8	-3	2	-6	0.0	1.8	2	3	1.5	-2
Cc1ccc(S(=O)(=O)N2CCN(Cc3cc(=O)n4ccccc4n3)CC2)cc1C	.	-4	-5	-2	0.2	.	-1	0	-0.7	.
COc1ccc(COc2ccc3c(C)cc(=O)oc3c2)cc1	1	2	2	-4	-5.2	-1.7	8	12	1.8	-8
CC(=O)c1ccc(NC(=O)CN2CCOCC2)cc1	-5	.	3	5	0.8	1.4	7	8	-5.8	-3
C/C=C\C=C/C(=O)Nc1cccc(C2=NOC3(C2)C[C@@H](C(N)=O)N(C(=O)/C=C/C=C\C)C3)c1 (some centres not stated)	-15	-5	0	4	2.6	-0.9	.	.	.	3
COC(=O)c1ccccc1NC(=O)C1CCN(C(=O)c2ccc(OC)cc2)CC1	3	-1	11	-19	0.4	-5.6	.	.	.	4
Cc1ccc(S(=O)(=O)N(C)CC(=O)N2CCN(Cc3ccccc3)CC2)cc1	8	9	1	-3	0.5	-10	4	9	-0.9	-23
CN1CCC(=O)N([C@H](CO)Cc2ccccc2)CC1	-7	-3	-8	-2	0.2	-3.1	16	14	-7.0	9
Cc1ccc(C=Nc2ccccc2C(N)=O)o1	-18	4	-1	-8	-6.6	4.2	5	18	13	-17
CC(C)(Oc1ccc(Cl)cc1)C(=O)O/N=C(\N)c1ccncc1	-8	0	5	7	0.3	1.4	-15	-38	-7.6	3

Carrying on:
SMILES	T cruzi repl	Beta cell apopt	B2AR ag	ALR H2O2 inh	Bfl-1 A1 inh	LANA-H2B inh	Ecoli rRNA inh	Ecoli rRNA inh OD600	Ecoli rRNA inh RFP	Calb FLC
O=C(Nc1ccccc1Cl)N1CCN(C/C=C/c2ccccc2)CC1	9	-11	-3	-3	-0.5	-5.7	-15	-9	-0.9	-16
COc1ccc(CNC(=O)c2c(C)nc3ccccn23)cc1	-4	9	-2	-2	0.6	0.5	.	.	.	11
Cc1ccc2c(c1)C1(OCCCO1)C(=O)N2CC(=O)NN	-6	0	-9	8	0.6	-3.6	4	8	1.2	1
O=C(NCc1ccco1)c1n[nH]c(=O)c2ccccc12	-11	-5	2	-1	-0.3	5.2	.	.	.	-15
O=C(NCCc1ccccc1)c1nc2c(nnn2Cc2ccccc2Cl)c(=O)[nH]1	15	22	-8	63	1.2	-2.5	.	.	.	12
Cc1cc(NC(=O)CN2CCN(C)CC2)no1	1	0	-5	-3	1.7	-2.1	21	27	0.5	-13
CCOc1ccccc1N(C)C(=O)Cn1ncc2c([nH]c3ccc(C)cc32)c1=O	0	8	8	-1	0.1	-3.9	2	-1	0.1	-6
N#Cc1cccc(NC(=O)C2CCCN(C(=O)c3ccc(Cl)cc3)C2)c1 (configuration not stated)	.	1	-4	.	0.6	-1.7	-8	-16	2.9	.
O=C(NCc1cccs1)C1CCN(S(=O)(=O)c2ccc(Br)s2)CC1	5	4	10	-10	0.4	-2.9	.	.	.	0
CCOc1ccc(NC(=O)CSc2nc3nc(C)cc(C)n3n2)cc1	1	-6	-16	-2	-0.1	4.8	-1	4	-0.7	2

Assay outcomes as filed in PubChem.
